Assay outcomes deposited in PubChem by National Center for Advancing Translational Sciences (NCATS).
StopGo reporter = FMDV 2A StopGo reporter, luciferase signal | human cells with a luciferase reporter of 2A StopGo recoding; control for the full effect not named in the record | Potency, µM (highest dose often 57.9 µM), for the others: top-dose signal change, negative = less light | hit rate 1.2% among 410,000 | AID 1159524; active = well fitted falling curve with a large enough effect; inconclusive = small, poorly fitted or top-dose-only effect; inactive = no such curve, though single readings can be large or run the other way; tested in HEK293T cells; further: on the % scale 0 is the no-effect control and ±100 the full control effect; nearly all actives have a fitted effect of over 45% in size; luciferase light after 4 h
LASV entry inh = blocks Lassa virus binding to or entry into cells; Lassa virus pseudotype entry inhibition, cell reporter; control for the full effect not named in the record; Potency, µM (doses to about 37.9 µM), without a hit: at the highest dose activity change, negative = inhibition, usual class: inhibitors; hit rate 1.2% among 300,000; AID 540256; active means well fitted inhibition curve with a large enough effect; inconclusive means small, poorly fitted or top-dose-only effect, or effect the other way; inactive means flat fitted curve, though single readings scatter; tested in HEK293 cells; further: on the % scale 0 is the no-effect control and ±100 the full control effect; nearly all actives have a fitted effect of over 50% in size; luciferase read-out
NS1 function inh = inhibitors of influenza NS1 protein function; hit rate 0.4% among 270,000; S. cerevisiae slowed by influenza A NS1, growth recovery by OD600; Potency, µM (highest dose often 46.1 µM), inactives show at the top dose activity, positive = more growth; active means well fitted rising curve with a large enough effect; inconclusive means small, poorly fitted or top-dose-only effect; inactive means no such curve, though single readings can be large or run the other way; further: nearly all actives have a fitted effect of over 50% in size
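OD600 was taken as the measure of yeast growth restored by compound in an NS1-expressing S. cerevisiae strain. Cells had been washed out of glucose medium and diluted 1:100 into galactose -URA medium, pH 6.0.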
Cruzain inh noDet = blocks cruzain activity in detergent-free assay; P25779; purified cruzain, Z-FR-AMC fluorescence, no detergent; Potency, µM, for inactives: max response, negative = inhibition, hits mostly inhibitors; hit rate 2.3% among 200,000; AID 1476;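 further: plate controls were enzyme without inhibitor for no effect and buffer without enzyme for full effect; nearly all actives have a fitted effect of over 40% in size; top concentration of the series not given in the record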
Target sequence (P25779 123-467 limits assumed): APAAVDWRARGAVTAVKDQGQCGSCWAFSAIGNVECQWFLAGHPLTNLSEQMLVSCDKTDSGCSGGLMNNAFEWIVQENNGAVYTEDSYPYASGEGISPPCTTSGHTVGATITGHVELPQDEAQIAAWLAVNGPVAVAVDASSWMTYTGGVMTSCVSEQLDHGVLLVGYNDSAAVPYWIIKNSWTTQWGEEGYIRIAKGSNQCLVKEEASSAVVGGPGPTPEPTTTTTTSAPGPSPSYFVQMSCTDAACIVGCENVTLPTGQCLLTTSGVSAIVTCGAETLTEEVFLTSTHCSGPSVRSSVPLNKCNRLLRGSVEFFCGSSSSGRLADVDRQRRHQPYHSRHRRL
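Detergent-free condition (0.00005% Triton X-100) in acetate buffer pH 5.5 with DTT. 1.5 nM enzyme and compound were pre-mixed 15 min, then 2 uM Z-FR-AMC substrate added; reaction progress from fluorescence change between first and third reads (60 s).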
SARS PLpro yeast = SARS-CoV PLP inhibition in yeast. Potency, µM (doses to about 32.9 µM), without a hit: at the top dose activity, positive = growth rescue. S. cerevisiae expressing SARS-CoV PLpro, growth rescue; control for the full effect not named in the record. hit rate 0.19% among 330,000; active means well fitted rising curve with a large enough effect; inconclusive means small, poorly fitted or top-dose-only effect; inactive means no such curve, though single readings can be large or run the other way; further: 0% is about no effect; nearly all actives have a fitted effect of over 55% in size; growth read by luminescence after 48 h
Marburg entry inh = inhibitors of Marburg virus binding or cell entry | Marburg virus pseudotyped entry inhibition, cell reporter; control for the full effect not named in the record; about a third of the inactives were read at about 46 µM | Potency, µM (doses to about 37.8 µM), without a hit: at the top dose activity change, negative = inhibition, most hits filed as inhibitors | hit rate 1.8% among 300,000 | AID 540276; active = well fitted inhibition curve with a large enough effect; inconclusive = small, poorly fitted or top-dose-only effect, or effect the other way; inactive = flat fitted curve, though single readings scatter; tested in HEK293 cells; about a fifth of its hits are not listed in these tables; further: on the % scale 0 is the no-effect control and ±100 the full control effect; luciferase read-out
RE007 growth inh = less growth of the S. pombe RE007 Vpr strain | S. pombe RE007 Vpr strain, BacTiter-Glo ATP luminescence, 24 h; control for the full effect not named in the record | Potency, µM (highest dose often 92.2 µM), for the others: at the highest dose activity change, negative = less growth | hit rate 0.21% among 360,000 | AID 651644; active = well fitted falling curve with a large enough effect; inconclusive = small, poorly fitted or top-dose-only effect; inactive = no such curve, though single readings can be large or run the other way;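 further: on the % scale 0 is the no-effect control and ±100 the full control effect; nearly all actives have a fitted effect of over 50% in size; the assay follows cell death caused by Vpr and the record does not say whether a fall means rescue or toxicity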
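Fission yeast RE007 carrying one integrated HIV-1 vpr copy, seeded at OD 0.01 in PMG+AL medium with 23 nL pinned compound. Grown 24 h at 30 degrees; viability read by BacTiter-Glo luminescence after 5 min.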
Cruzain Triton = inhibitors of Trypanosoma cruzi cruzain with detergent. Potency, µM, without a hit: max response, negative = inhibition, hits mostly inhibitors. purified cruzain, Z-FR-AMC fluorescence, 0.01% Triton. P25779. hit rate 0.43% among 200,000;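 further: plate controls were neutral wells for no effect and buffer without enzyme for full effect; nearly all actives have a fitted effect of over 40% in size; top concentration of the series not given in the record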
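Cysteine protease activity tested under reducing, mildly acidic conditions (100 mM sodium acetate pH 5.5, 5 mM DTT) plus 0.01% Triton X-100. Cruzain 1.5 nM; substrate Z-FR-AMC 2 uM; 15 min compound preincubation at room temperature.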
The depositor's hits bear a star; ? = inconclusive; . = not tested or not shown; & = joins results of further samples; [ ] = another dose, or the depositor's remark. Unless noted, the call rests on the fitted dose curve; in most records, active means well fitted curve in the direction sought with a large enough effect; inconclusive means small, poorly fitted or top-dose-only effect, or another doubt; inactive means no such curve, though single readings can be large; an effect the other way counts as inactive or inconclusive. Potency means the concentration at half of the fitted maximal effect.

SMILES | StopGo reporter | LASV entry inh | NS1 function inh | Cruzain inh noDet | SARS PLpro yeast | Marburg entry inh | RE007 growth inh | Cruzain Triton
COc1ccc(CC(=O)NCC(=O)N/N=C/c2ccc(C)o2)cc1 | -18.9% | 0.0% | 4.0% | 8.2% | -10.9% | -16.1% | 14.4% | 1.0%
Nc1nc2c(s1)C(=O)CCC2 | -5.9% | 10.3% | -2.7% | -2.7% | -3.1% | 1.3%[46.1 µM] | -0.1% | 0.4%
NC(=O)c1c(NC(=O)CSc2nnc(-c3ccccc3)n2CC2CCCO2)sc2c1CCC2 (stereo not given) | -6.5% | 1.7% | 6.6% | -4.7% | 11.7% | -11.9% | 4.9% | -3.6%
CC1CN(C(=O)CCC(=O)NCc2cccs2)c2cc(Cl)ccc2O1 (stereo not given) | -4.8% | ? | . | 5.9% | . | 22.4%[46.1 µM] | . | -0.4%
CC1CCN(c2c(NCc3ccc(C(=O)N(C)C4CCCCC4)cc3)c(=O)c2=O)CC1 | 7.7% | . | 3.1% | . | -0.3% | . | 6.9% | .
Cc1ccccc1Nc1nc(-c2sc(NC(=O)c3ccc([N+](=O)[O-])cc3)nc2C)cs1 | . | . | 6.0% | 10µM* | 1.3% | -9.7% | . | 6.4%
CC(=O)C(Sc1ccc2nnc(-c3ccc(C)cc3)n2n1)C(C)=O | -10.6% | . | -96.4% | ? | -16.1% | . | -0.6% | -5.0%
COc1ccccc1OC(=O)c1ccc(C)c(S(=O)(=O)N2CCOCC2)c1 | -12.9% | ? | -13.3% | . | -1.7% | -3.4%[46.1 µM] | -17.1% | .
O=C(/C=C/c1ccc2ccccc2n1)N1CCN(S(=O)(=O)c2ccccc2F)CC1 | ? | . | 4.8% | . | -0.2% | . | -1.8% | .
CCOC(=O)c1c(NC(=O)CSc2nnc3c(n2)[nH]c2ccccc23)sc2c1CCN(C)C2 | -17.9% | -10.8% | . | . | . | ? | -10.2% | .
Cc1ccc(OCC(=O)Nc2cccc(-c3nnc(-c4ccccc4)o3)c2)c(C)c1 | -20.1% | ? | 0.8% | -20.1% | 6.9% | -13.5% | -3.3% | -3.3%
Cc1ccc(Cc2c(C)nc3nc(SCC(=O)NCCC(C)C)nn3c2C)cc1 | 0.0% | 19.8%[46.1 µM] | . | 0.3% | . | -4.2%[46.1 µM] | . | -1.2%
COCCCNC(=O)CCC(=O)NNc1nc2ccccc2c2nc(-c3ccccc3)nn12 | 16.1%&-4.1% | -3.9%[46.1 µM] | -3.6% | 4.6%&10.0% | -9.1% | 2.4%[46.1 µM] | 0.9% | 1.2%&-3.7%
CCn1c(COc2cccc(OC)c2)nnc1SCC(=O)Nc1cccc(OC)c1 | -3.1% | -0.6% | -36.0% | 15.6% | -8.2% | -8.7% | 9.6% | -2.2%
CN(C)N1C(N)=C(C#N)C(c2ccc(Br)cc2)C2=C1CC(C)(C)CC2=O (stereo not given) | -17.8% | -8.8%[46.1 µM] | -1.0% | . | 2.1% | 4.3%[46.1 µM] | 7.6% | .
Cc1nn(CC(=O)OCC(=O)Nc2ccccc2[N+](=O)[O-])c(C)c1[N+](=O)[O-] | -5.1% | -10.8% | -34.1% | 8.3% | 4.4% | -1.4% | 1.7% | -1.1%
Cc1nn(-c2ccccc2)c2sc(-c3n[nH]c(=S)o3)cc12 | -11.8% | ? | 2.51µM* | 6.4% | -36.0% | 3.4% | -26.3% | -16.0%
CCOc1ccc(C(=O)Nc2nnc(SCC(=O)NCC3CCCO3)s2)cc1OCC (stereo not given) | 12.2% | -1.7% | -1.8% | . | -11.3% | -1.2% | 2.0% | .
Cc1nc(SCC(=O)NCCc2ccc(Cl)cc2)nc(C)c1C | . | -16.6% | -18.1% | -4.2% | -6.5% | 5.1% | 10.6% | 6.0%
CN(C)c1cccc(C(=O)Nc2cc(C(F)(F)F)ccc2-n2cnc3ccccc32)c1 | -4.2% | -13.6% | 13.3% | 11.4% | -25.5% | 9.2% | 0.2% | -9.6%
O=C(/C=C/c1ccc(Cl)cc1Cl)NC(=S)Nc1ccccn1 | 19.9% | ? | -3.9% | -0.9% | -0.2% | ? | -23.4% | 7.0%
CCCn1nc2cc(C(=O)NC3CCCc4ccccc43)ccc2c1OCC (stereo not given) | 65.9%[activator] | . | -1.1% | -4.1% | -7.0% | . | 4.1% | -3.5%
Cc1ccc(CNC(=O)CSc2c(C(C)C)cnc3c2c(=O)n(C)c(=O)n3C)cc1 | -5.9% | -8.8%[46.1 µM] | . | -5.5% | . | . | . | 1.3%
OCCCNc1ncnc2c1[nH]c1ccccc12 | -17.7% | -3.2%[46.1 µM] | 10.6% | . | -2.7% | ? | 6.0% | .
COc1ccc(OC)c(C2=Nn3c(nnc3C3CCCCC3)SC2)c1 | 10.6% | -15.3% | -6.7% | 4.7% | -0.5% | ? | 7.5% | -4.1%
COc1ccc(C2N(c3ccc(OC)cc3)C(=O)C3CCCN32)cc1 (stereo not given) | 4.4% | . | -7.8% | 13.0% | 2.5% | -7.5% | 2.9% | 1.5%
CC(c1ccccc1)N(NC(=O)C(O)(c1ccccc1)c1ccccc1)C(=O)c1ccccc1 (stereo not given) | -11.9% | 5.2% | 12.3% | -14.9% | 12.5% | ? | -6.0% | 2.1%
O=C(CCl)NCc1c(Cl)cccc1-n1cccc1 | 0.0% | ? | 9.8% | 5.6% | 8.5% | ? | 9.6% | 3.5%
Cc1ccc(S(=O)(=O)N(C)C)cc1NC(=O)c1cccs1 | -19.4% | . | 4.9% | . | -3.7% | . | 11.5% | .
CCOC(=O)C(O)(c1ccc(NC(=O)Oc2ccccc2)cc1)C(F)(F)F (stereo not given) | 12.0% | 9.2% | 2.2% | -2.8% | 0.2% | ? | 1.1% | -3.4%
CCOC(=O)N1CCN(S(=O)(=O)c2cccc3ccc(C)nc23)CC1 | -18.7% | 1.6% | 2.6% | -0.7% | 3.7% | ? | -8.7% | 2.5%
O=S(=O)(NCC(c1cccnc1)N1CCN(Cc2ccccc2)CC1)c1cc(F)ccc1F (stereo not given) | -13.2% | ? | -3.5% | . | -2.7% | -3.3%[46.1 µM] | -6.8% | .
N=C1C(c2nc(-c3cccc([N+](=O)[O-])c3)cs2)=C(O)CN1NC(=O)c1ccco1 | -19.4% | ? | . | . | -0.9% | ? | 9.8% | .
COc1cccc(-c2cc(C(=O)Nc3cc(OC)c(OC)c(OC)c3)no2)c1 | ? | ? | -42.3% | ? | -11.8% | ? | 12.7% | -8.6%
CCOC(=O)n1c(=O)n(C)c2ccc(Cl)cc21 | -3.1% | 9.2% | . | . | -2.2% | -1.5%[46.1 µM] | -11.7% | .
CCOC(=O)c1c(NC(=O)CN2CCCCC2)sc(C)c1C | -26.6% | . | 1.6% | . | -0.1% | . | 2.7% | .
O=C(c1ccccc1F)c1cn(CC(=O)N2CCOCC2)c2ccccc12 | -8.6% | 7.8% | -0.4% | 3.1% | -4.2% | -0.9%[46.1 µM] | -1.2% | 1.1%
COc1cc2c(cc1NC(=O)C(C)Sc1ccc(NC(C)=O)cc1)oc1ccccc12 (stereo not given) | ? | ? | 17.7% | 6.8% | -4.7% | ? | -1.3% | -7.4%
Cc1cc(NC(=O)CCC(=O)N(CC(=O)NCC2CCCO2)c2ccc3c(c2)OCCO3)no1 (stereo not given) | 27.2% | -20.7% | -2.0% | 5.8% | 7.2% | 24.6%[46.1 µM] | -0.9% | 2.0%
Cc1cc(S(=O)(=O)n2cnc3cc([N+](=O)[O-])ccc32)ccc1Cl | 19.5% | 13.0% | 4.1% | 7.6% | 10.2% | 13.7% | -15.5% | 5.7%
COc1ccccc1-n1cnc2c(c1=O)c1nc3ccccc3nc1n2CCc1ccccc1 | -27.9% | 16.5% | 4.6% | ? | -11.0% | 19.7% | 3.4% | -7.5%
O=C(CSc1nccc(=O)[nH]1)NC1CCCCCC1 | -20.7% | -5.6% | . | . | 9.1% | -13.3% | -11.9% | .
CCO[C@H]1OC(C(=O)NCc2ccccc2)=C[C@@H](c2ccc3c(c2)OCO3)[C@@H]1CCCO | -14.8% | . | -4.1% | . | 1.5% | . | -5.0% | .
CC(=O)Nc1ccc(NC(=O)CCn2nnc3ccccc32)cc1 | -9.9% | ? | -5.3% | . | -1.0% | 1.2%[46.1 µM] | -6.9% | .
O=[N+]([O-])/C(C(=C(Cl)Cl)N1CCOCC1)=C1\NCCO1 | 4.8% | 19.1% | 0.9% | . | 0.7% | -13.3% | 0.0% | .
O=C(Nc1ccccc1C(=O)Nc1ccc(Br)cn1)c1cccc([N+](=O)[O-])c1 | -10.7% | . | 12.1% | . | 1.4% | . | -4.3% | .
CCc1cccc(NC(=O)Nc2ccc3c(c2)N(C)C(=O)c2ccccc2S3)c1 | -22.8% | -6.8%[46.1 µM] | . | 14.1% | . | 3.9%[46.1 µM] | . | -3.0%
Cc1cc(C)n(CC(O)COc2ccc3ccccc3c2)n1 (stereo not given) | 48.9%[activator] | 3.8% | -0.2% | . | 0.1% | 1.9%[46.1 µM] | 9.5% | .
Cc1cccc(NS(=O)(=O)c2c(C)nc3scc(C)n3c2=O)c1 | 20.2% | -23.8%[46.1 µM] | 5.6% | . | -2.4% | -1.7%[46.1 µM] | 6.7% | .
COC(=O)c1ccc(OCCn2cnc3ccccc3c2=O)cc1 | 73.5%[activator] | ? | -0.8% | -7.7% | -3.9% | 15.8% | 5.4% | 0.0%
Clc1ccc(C(c2ccccc2)N2CCNCC2)cc1 (stereo not given) | -4.3% | -13.2% | ? | -6.6% | 5.4% | ? | 19.0% | -0.5%
O=C1CN(c2nc(-c3ccccc3)c3cc(Br)ccc3n2)c2ccccc2N1 | . | . | 5.2% | 12.6µM* | 11.0% | -3.6% | . | -9.5%
